Compound activity (PubChem)
Menin MLL FP FL = displaces fluorescein MLL peptide from human menin | FP activity change, % at 61.4 µM | Fluorescence polarization, fluorescein-MLL peptide displacement from menin | 290,000 tested, under 10 active | AID 1766; inconclusive = falling polarisation curve, or a change in total fluorescence; inactive = total fluorescence flat and polarisation flat or rising; no compound was filed as active; the % refers to the polarisation; negative = inhibition;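 further: % of control where 0% means no effect; inhibitors lower the polarisation; unlabelled MLL peptide was the positive control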
Sfp inh = blocks B. subtilis Sfp PPTase activity; Q9F4F7; Biochemical Sfp PPTase activity, qHTS; Potency, µM, without a hit: max response, negative = inhibition, actives largely listed as inhibitors; 3.5% of 310,000 active; active means well fitted inhibition curve with a large enough effect; inconclusive means small, poorly fitted or top-dose-only effect, or another doubt; inactive means no such curve, though single readings can be large or run the other way;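 further: the enzyme is Sfp with the accession as filed and its product quenches rhodamine fluorescence; potency means the concentration at half of the fitted maximal effect; 0% = enzyme reaction without inhibitor and -100% = no enzyme wells; top concentration of the series not given in the record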
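Compounds were incubated with enzyme (final 15 nM) for 15 min at room temperature before substrate addition started the reaction. Fluorescence at 525 nm excitation, 598 nm emission was recorded immediately and after 30 minutes.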
TRPML1 agonist = human mucolipin-1 channel agonism; Q9GZU1; TRPML1-expressing cells, Ca2+ dye fluorescence, FDSS; host cell line not named in the record; reference of the full effect not given here; activation, % (test concentration not listed); 0.12% of 410,000 active; AID 624414; in the data active = activation above about 50%; inconclusive = about 30% to 50%; inactive = below about 30%; further: 0% is about no effect; the text of the record puts the active cut at 80%
Target sequence (Q9GZU1 whole entry, looked up): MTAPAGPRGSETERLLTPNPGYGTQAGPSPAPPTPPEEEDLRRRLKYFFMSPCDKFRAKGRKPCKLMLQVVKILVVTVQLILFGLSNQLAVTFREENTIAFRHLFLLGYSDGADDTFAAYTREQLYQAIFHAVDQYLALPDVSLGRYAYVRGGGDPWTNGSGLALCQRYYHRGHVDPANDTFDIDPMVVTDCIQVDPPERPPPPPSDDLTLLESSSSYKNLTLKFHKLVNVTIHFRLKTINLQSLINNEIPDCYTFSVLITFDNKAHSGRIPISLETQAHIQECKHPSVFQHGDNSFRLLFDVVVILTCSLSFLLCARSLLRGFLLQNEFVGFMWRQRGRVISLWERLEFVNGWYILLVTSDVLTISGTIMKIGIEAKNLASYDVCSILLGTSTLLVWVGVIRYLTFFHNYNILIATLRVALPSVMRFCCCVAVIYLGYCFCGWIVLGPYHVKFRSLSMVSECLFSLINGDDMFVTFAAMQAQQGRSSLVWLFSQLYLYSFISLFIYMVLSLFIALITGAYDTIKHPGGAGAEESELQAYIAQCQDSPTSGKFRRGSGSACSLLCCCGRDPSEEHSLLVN
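TRPML1-DL cells, Tet-induced overnight (~16 h, 37 degrees C), loaded 45-90 min at room temperature with Ca8 no-wash calcium dye plus quencher. FDSS fluorescence: 10 s baseline, compound pin-transfer, 110 s agonist read, then EC80 54-4 (4uM final) and 110 s antagonist read.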
TRPV1 PAM = enhances activation of the human vanilloid receptor TRPV1; Q8NER1; TRPV1-expressing cells, Fluo-8 calcium influx, capsaicin EC20 potentiation; host cell line not named in the record; control for the full effect not named in the record; potentiation, % at 8.33 µM; 0.02% of 320,000 active; AID 540277; active means potentiation above 80%; inconclusive means 30% to 80%; inactive means below 30%; further: 0% is about no effect
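Cells expressing TRPV1 were dye-loaded with Fluo-8 and read kinetically: 10 s baseline, 3 min after compound (agonist portion), then 2 min after EC20 capsaicin (allosteric enhancer portion). Calcium-bound dye fluorescence at 480/520 nm.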
TRPML1 inh = blocks the human TRPML1 channel. Q9GZU1. TRPML1-inducible cells, Ca2+ dye fluorescence, FDSS; hits give low values; inhibition of EC80 agonist-evoked calcium signal. activity change, negative = inhibition, % (no concentration beside the values). 0.02% of 390,000 active. AID 624415; in the data active means activity change below about -50%; inconclusive means about -30% to -50%; inactive means above about -30%;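 further: stimulus is agonist 54-4 at its EC80 concentration; on the % scale 0 is the no-effect control and ±100 the full control effect; compound concentration not given in the record; the text of the record puts the active cut at -80%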
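TRPML1-DL cells, Tet-induced overnight (~16 h, 37 °C) at 1,500 cells/well, were loaded with Ca8 no-wash dye plus quencher for 45-90 min at room temperature. Compounds were pinned during FDSS kinetic reading; agonist 54-4 at EC80 (4 uM final) then added.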
ClpP mod = qHTS Assay for Activators of ClpP; ATP-dependent Clp protease proteolytic subunit (Bacillus subtilis (strain 168)), P80244; purified B. subtilis ClpP, FRET peptide cleavage, 20 min; Potency, µM (titrated, usually from 57.5 µM), inactives show at the top dose activity change, negative = active; 1.9% of 340,000 active; AID 651965, 2013; active = well fitted falling curve with a large enough effect; inconclusive = small, poorly fitted or top-dose-only effect; inactive = no such curve, though single readings can be large or run the other way; further: potency means the concentration at half of the fitted maximal effect; the source files actives as falling curves though it sought activators and does not explain the sign; nearly all actives have a fitted effect of over 65% in size; many hits overshoot -100%
Target sequence (P80244 whole entry, looked up): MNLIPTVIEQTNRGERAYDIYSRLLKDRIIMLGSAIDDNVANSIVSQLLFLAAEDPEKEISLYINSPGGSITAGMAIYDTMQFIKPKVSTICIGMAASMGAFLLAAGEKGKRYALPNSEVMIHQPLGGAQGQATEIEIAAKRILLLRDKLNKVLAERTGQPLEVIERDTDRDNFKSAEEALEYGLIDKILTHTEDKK
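FRET quenching reversal measured ClpP activation: 10 microg/mL B. subtilis ClpP at pH 8 with the FRET-FV decapeptide, read at 430 nm after 320 nm excitation. The 20-min minus 0-min signal was scaled between DMSO/no-enzyme wells and ADEP (5.8 microM final).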
PINK1 modulator = modulators of PINK1 expression. PINK1 immunofluorescence, high-content cytometry, 24 h. Potency, µM (series often up to 76.6 µM), for the others: at the top dose activation (PINK1 increase), hits mostly activators. 0.2% of 410,000 active. AID 624263; active = well fitted activation curve with a large enough effect; inconclusive = small, poorly fitted or top-dose-only effect; inactive = flat fitted curve, though single readings scatter; cell line not stated here;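 further: potency means the concentration at half of the fitted maximal effect; % of control where 0% means no effect; nearly all actives have a fitted effect of over 65% in size; a mitochondrial uncoupler was the plate control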
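Cells are seeded, rested 12 hours, then given compound at five concentrations or DMSO for 24 hours. After fixation, blocking and antibody staining, PINK1 amount and mitochondrial localization are scored; CCCP serves as control.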
Numbers without * were called inactive; ? = inconclusive; . = no result given; [ ] = dose if it differs, or a comment.

Compound	Menin MLL FP FL	Sfp inh	TRPML1 agonist	TRPV1 PAM	TRPML1 inh	ClpP mod	PINK1 modulator
O=C1CN(C(=O)c2cc([N+](=O)[O-])ccc2Cl)C(c2ccc(F)cc2)c2cc(F)ccc2N1 (centres undefined)	8.4	1%	-0.8	-4	2	2.3%	-0.6%
CC(C)CCNC(=O)C1CCCN(S(=O)(=O)c2ccc(-n3cnnn3)cc2)C1 (centres undefined)	-0.9	9%	-0.2	-10	-22	.	-0.8%
c1csc(-c2nc3ccccn3c2Nc2ccc3c(c2)OCCO3)c1	.	.	0.2	.	12	4.4%	7.4%
C=Cc1ccc(CSc2nc(-c3ccccc3C)nc3c2Cc2c(CO)cnc(C)c2O3)cc1	.	.	0.3	.	33	-2.8%	0.6%
O=C1CC(NS(=O)(=O)c2cccs2)CN1c1ccc(Cl)cc1 (centres undefined)	.	.	0.2	-14	39	.	-0.2%
Cc1cc(C)c2c(n1)sc1c(N3CCN(CCO)CC3)ncnc12	-2.2	15%	0.3	3	4	-18%	1.6%[38.3 µM]
O=C(Nc1nnc(SCC(=O)N2CCCCC2)s1)c1c(F)cccc1F	-1.6	9%	-0.6	4	-3	-0.7%	6.7%
O=C1CCc2cc(S(=O)(=O)N3CCN(C(=O)c4ccco4)CC3)ccc2N1	-1.2	-26%	0.2	-5	-11	-2.5%	-2.5%[38.3 µM]
Cc1cc([N+](=O)[O-])cnc1N1CCOCC1	-0.9	25%	-0.1	0	-10	.	-2.5%
C[C@H](CO)N1C[C@H](C)[C@@H](CN(C)S(=O)(=O)c2ccc(F)cc2)Oc2ccc(NS(=O)(=O)c3ccccc3)cc2C1=O	.	.	0.0	.	-15	-0.5%	-0.4%
CC(OC(=O)c1ccc2c(=O)n3c(nc2c1)CCCCC3)C(=O)Nc1ncc(Cl)cc1Cl (centres undefined)	4.0	-4%	0.1	-3	-2	-5.7%	6.1%
COc1ccc(N2CCN(c3oc(/C=C/c4ccccc4OC)nc3C#N)CC2)cc1	.	.	0.2	.	11	4.5%	1.6%
Cc1n[nH]c(C)c1C(=O)CC1(O)C(=O)N(CCc2ccccc2)c2ccc(Cl)cc21 (centres undefined)	5.8	-8%	-0.7	.	-10	6.0%	-1.2%
O=C(O)/C=C/c1ccc(OCCCF)cc1	2.1	14%	-0.4	-2	-1	.	-1.7%
CC(NC(=O)COc1ccc(Oc2ccccc2)cc1)C(=O)O (centres undefined)	-0.2	5%	-0.1	9	-2	0.2%	8.0%
CC1(c2ccccc2)NC(=O)N(NC(=O)CSc2n[nH]c(N)n2)C1=O (centres undefined)	5.3	7%	0.0	-7	5	0.7%	-0.5%
COc1cc2c(cc1OC)C(C(=O)Nc1ccccc1N1CCN(C)CC1)C1c3ccccc3CCN1C2=O (centres undefined)	-3.7	5%	-1.0	-37	11	?	1.1%
Cc1ccc(/C=N/NC(=O)c2cccc3ccccc23)o1	-3.4	-17%	-0.7	-7	39	.	8.6%
Cc1cc(Br)ccc1SCC(=O)OCC(=O)c1c(N)n(C)c(=O)n(C)c1=O	5.1	-11%	-0.3	?	11	-0.6%	8.0%
Cc1cc(C(=O)N2CCN(Cc3ccc4c(c3)OCO4)CC2)cs1	0.2	9%	1.4	-3	-20	-1.7%	-0.3%[38.3 µM]
CC(=O)Nc1ccc2nc(NC(=O)COc3cccc(C)c3)sc2c1	4.8	2%	-1.2	6	4	-0.8%	0.7%
COc1cc2c(cc1OC)C1=NC(=O)CN1C(SCc1ccccc1)=N2	3.4	?	-0.1	0	-4	22µM*	4.5%
O=S(=O)(c1ccc2c(c1)CCN2)N1CCOCC1	.	.	0.1	8	1	-6.2%	-0.2%
COc1ccc(C2(C(=O)Nc3c(C)n(C)n(-c4ccccc4)c3=O)CCCC2)cc1OC	2.3	-7%	-0.4	-1	6	1.4%	-0.2%
COc1ccc(-c2csc(NC(C)=O)n2)cc1OC	-0.6	50µM*	-0.9	1	-11	-0.4%	-1.0%
Cc1cccc(C(=O)N/C(=C\c2ccco2)C(=O)N2CCCCCC2)c1	3.5	3%	1.7	-7	27	.	-0.6%
CN(CCOc1ccc(Cl)cc1)C(=O)c1cccc(S(=O)(=O)N2CCN(c3ccccc3)CC2)c1	.	.	1.3	.	21	-0.6%	2.0%
Cc1ccc(C)c(N2CCN(S(=O)(=O)c3cc(Br)cc4c3N(C(=O)C3CC3)CC4)CC2)c1	.	.	-0.7	.	-20	1.0%	1.2%
CCOC(=O)c1csc(N/N=C2\CCc3ccccc32)n1	-1.2	-15%	0.2	-3	-6	-0.7%	4.4%
Cc1nnc(SCC(=O)Nc2ccc3c4c(cccc24)CC3)n1C	0.1	16%	0.1	9	-13	-13%	1.0%
COc1ccc(/C=N/NC(=O)CCCCCNC(=O)c2ccccc2)cc1	3.0	8%	0.0	16	11	.	1.0%
COc1ccc(-n2c(COc3ccccc3)n[nH]c2=S)cc1	-5.1	2%	-0.2	15	24	-1.0%	-0.8%
COc1cc2c(cc1NC(=S)NC(=O)/C=C/c1ccco1)oc1ccccc12	0.9	1%	-1.0	?	5	.	2.9%
COc1ccccc1-c1cc(-n2ccnc2)ncn1	-1.8	1%	.	.	.	.	-0.4%
Cc1ccccc1NS(=O)(=O)c1ccc(C(=O)NCCCN2CCCC2=O)cc1	.	.	0.4	-1	15	0.9%	-2.0%
O=c1[nH]c(CSc2nnc3ccccn23)nc2ccccc12	6.4	2%	0.8	2	3	0.9%	0.9%
CC(=O)Nc1ccc(S(=O)(=O)N(C)Cc2ccccc2)cc1	4.0	13%	-0.6	1	14	-0.1%	-1.4%
COc1ccc(OC)c(C2(O)CSC(=Nc3cccnc3)N2Cc2ccco2)c1 (centres undefined)	?	?	-0.9	-10	-10	-20%	-1.8%
Cc1ccc(C)c(S(=O)(=O)NCc2ccc(C(=O)N3CCC(Cc4ccccc4)CC3)cc2)c1	-1.4	3%	3.1	-32	0	-0.2%	18%[38.3 µM]
O=C(COc1ccc(-c2ccccc2)cc1)N/N=C/c1ccccc1Br	2.5	27%	1.5	.	-3	3.1%	11%

Part of the list above, set out differently.
Second line of a record – Menin MLL FP FL	Sfp inh	TRPML1 agonist	TRPV1 PAM	TRPML1 inh	ClpP mod	PINK1 modulator
> O=c1[nH]c(CSc2nnc3ccccn23)nc2ccccc12
    6.4	2%	0.8	2	3	0.9%	0.9%
> CC(=O)Nc1ccc(S(=O)(=O)N(C)Cc2ccccc2)cc1
    4.0	13%	-0.6	1	14	-0.1%	-1.4%

Next part:
Compound	Menin MLL FP FL	Sfp inh	TRPML1 agonist	TRPV1 PAM	TRPML1 inh	ClpP mod	PINK1 modulator
Cc1cc(-c2ccccc2)nc(N(C)N)c1S(C)(=O)=O	2.0	8%	1.3	-4	10	.	1.1%
Cc1nc(-c2ccc(NC(=O)c3ccccc3)cc2)cs1	3.9	16%	-0.2	-21	-2	-6.4%	1.1%
C/C(CC(=O)Nc1cc(C)ccn1)=N\NC(=O)c1cccc(C)c1O	.	15%	-0.6	-5	-9	.	?
CC1CCN(C(=O)CNC(=O)c2ccc(Br)o2)CC1	.	.	0.9	.	-20	1.8%	0.4%
O=C(Nc1nnc(C2CC2)s1)c1cccnc1Oc1ccc(Cl)cc1	2.6	10%	1.8	18	32	0.1%	1.8%
COC(=O)c1cc(S(=O)(=O)NCC2CCN(Cc3cccc(Cl)c3)CC2)c[nH]1	.	14%	0.2	-10	-19	0.7%	-0.3%
COc1ccccc1CNC(=O)COCc1cc(-c2cccs2)on1	.	.	0.0	.	-4	-5.0%	-0.2%
Nc1cccc(N=[N+]([O-])c2cccc(N)c2)c1	.	.	-0.4	.	-4	.	0.3%
CN(C)/C=C/C(=O)c1ccc(OCCN(C)c2ccccn2)cc1	4.6	-3%	0.3	10	5	?	2.9%
Cn1cnnc1SCc1ccc(C(=O)O)cc1	2.3	17%	-0.6	0	7	-1.7%	1.8%
Cc1cc(S(=O)(=O)Nc2ccc(N(C)C)cc2)c(C)s1	0.0	-11%	0.6	-3	15	1.1%	-4.0%[38.3 µM]
O=C(COC(=O)c1ccccc1O)Nc1cc([N+](=O)[O-])ccc1Cl	1.7	15%	.	6	.	-0.5%	8.0%
Cc1cccc(C(=O)NC2CCN(S(=O)(=O)c3cccc(F)c3)CC2)c1	.	.	0.6	.	-5	0.3%	7.9%
Cc1cc(C)cc(NC(=O)c2snc3c(=O)[nH]cnc23)c1	2.8	12%	.	0	.	.	.
COc1ccc(C(=O)N[C@H](C(=O)NCCCn2nc(C)cc2C)C(C)C)cc1	.	.	1.1	.	-3	-0.5%	0.0%
CS(=O)(=O)N(CC(=O)NC1CCCC1)c1cccc(F)c1	2.8	9%	0.2	2	-10	-0.1%	2.9%[38.3 µM]
COCCCNC(=O)Cc1c(C)c2cc3c(cc2oc1=O)OC(C)(C)CC3	4.8	2%	-0.4	11	18	3.9%	8.9%
N#Cc1cc(-c2ccc(Cl)cc2)cnc1Sc1ccc(F)cc1	2.6	4%	4.2	.	66	?	?
CC(=O)Nc1cccc(/C(C)=N/NC(=O)c2ccc(O)cc2)c1	5.1	12%	-0.7	-3	-4	0.7%	0.8%
OC(C[n+]1cccc(Br)c1)c1ccccc1 (centres undefined)	.	.	-0.2	.	.	-12%	0.1%

Hits appear at their usual frequency; 4.4% or so of the library scored in one or more.
